# Screening results (PubChem BioAssay)
# VACV mCherry inh: vaccinia inhibition (mCherry reporter); AID 720579; Potency, µM (highest dose often 36.5 µM), for the others: at the top dose activity change, negative = inhibition, hits mostly inhibitors; 0.63% of 310,000 active; Vaccinia virus mCherry reporter infection, fluorescence; about a quarter of the inactives have no number; active = well fitted inhibition curve with a large enough effect; inconclusive = small, poorly fitted or top-dose-only effect; inactive = no such curve, though single readings can be large or run the other way; tested in A549 cells; note: nearly all actives have a fitted effect of over 35% in size; inactives centre near -10
# VACV Venus inh: inhibitors of vaccinia virus (Venus reporter); Vaccinia virus Venus reporter expression, fluorescence; AID 720580; 0.46% of 330,000 active; Potency, µM (doses to about 36.5 µM), for the others: at the top dose activity change, negative = inhibition, usual class: inhibitors; active means well fitted inhibition curve with a large enough effect; inconclusive means small, poorly fitted or top-dose-only effect; inactive means no such curve, though single readings can be large or run the other way; tested in A549 cells; note: nearly all actives have a fitted effect of over 30% in size; inactives centre near -10
# An asterisk follows results filed as active; i = inactive; ? = inconclusive; . = no result given; [ ] = another dose, or the depositor's remark. % is set by controls: 0 for no effect and ±100 for the full control effect; potency is the fitted concentration of half-maximal effect.
# Preview, 4 compounds:
SMILES,VACV mCherry inh,VACV Venus inh
COc1ccc(NS(=O)(=O)c2ccc(NC(=O)N3CCCC3)cc2)cc1,-15.8%,-13.3%
Cc1cc(-c2ccnc(-n3ncc(C(=O)NCc4cccnc4)c3C3CC3)n2)c(C)s1,-12.3%,6.3%
CC(=O)c1ccc(NC(=O)c2cc(-c3ccc(Cl)c(Cl)c3)on2)cc1,-1.0%,3.0%
CC(=O)Nc1ccc(S(=O)(=O)N2CCN(C(=O)N3CCCCCC3)CC2)cc1,.,1.8%

# Results, repeating the preview:
SMILES,VACV mCherry inh,VACV Venus inh
COc1ccc(NS(=O)(=O)c2ccc(NC(=O)N3CCCC3)cc2)cc1,-15.8%,-13.3%
Cc1cc(-c2ccnc(-n3ncc(C(=O)NCc4cccnc4)c3C3CC3)n2)c(C)s1,-12.3%,6.3%
CC(=O)c1ccc(NC(=O)c2cc(-c3ccc(Cl)c(Cl)c3)on2)cc1,-1.0%,3.0%
CC(=O)Nc1ccc(S(=O)(=O)N2CCN(C(=O)N3CCCCCC3)CC2)cc1,.,1.8%
CC[n+]1c(C)n(-c2ccccc2)c2ccc(C(=O)OC)cc21,15.7%,5.3%
COc1cc(/C=C/CN2CCC(CO)(CC3CCCCO3)CC2)ccc1O (centres undefined),-23.6%,-2.9%
COc1ccc(Nc2nc3cc(-c4sccc4C)sc3c(=O)n2C)cc1OC,-8.5%,-22.9%
O=C(CSCc1ccc(Cl)cc1)Nc1ccc(S(=O)(=O)N2CCCCCC2)cc1,-20.1%,-12.5%
O=c1[nH]c(=S)c2ncn(-c3ccccc3)c2[nH]1,-7.6%,3.1%
Cc1nn(C)c(C)c1CN(C)C(=O)C1(C)CC1(Br)Br (centres undefined),-4.3%,13.5%
C=C1[C@H]2CC[C@H]3[C@]4(C)C[C@H](O[C@@H]5OC(CO)[C@@H](OSOOO)[C@H](OS(=O)(=O)O)[C@H]5OC(=O)CC(C)C)C[C@@H](C(=O)O)[C@H]4CC[C@]3(C2)[C@H]1O (some centres undefined),-12.7%,-8.9%
Cc1cc(/C=C2/SC(=S)N(c3cccc(C(F)(F)F)c3)C2=O)c(C)n1-c1cccnc1,?,?
COC(=O)CCc1c(C)nc(N)[nH]c1=O,-14.8%[1.46 µM],-18.6%
Cc1cccc(C)c1NC(=O)CN1C(=O)S/C(=C\c2cccn2-c2cccc(C(=O)O)c2)C1=O,i,-14.4%
Cc1cc(C)n(C(=O)c2ccc([N+](=O)[O-])cc2Cl)n1,-9.2%,-11.1%
CCc1oc(C(=O)O)cc1COC,-2.6%,-8.8%
Cc1cccc(NS(=O)(=O)c2cccc(C(=O)N3CCN(S(=O)(=O)c4ccccc4)CC3)c2)c1,-2.9%,-16.0%
O=C(Nc1ccc(Cl)c(Cl)c1)c1csc(-c2ccccc2)n1,i,-4.5%
CCCCN1C(=O)C(CC(=O)NCCN2CCOCC2)CC(C(=O)N(CC)CC)=C1C (centres undefined),i,-4.4%
COc1ccccc1-c1cc(C(F)(F)F)nc(NCc2cccs2)n1,-15.6%,-12.6%
Cc1ccccc1S(=O)(=O)N(C)C[C@H]1OCc2cn(nn2)CCCC(=O)N([C@H](C)CO)C[C@@H]1C,13.4%,-6.4%
Cc1cc(=O)[nH]c(SCC(=O)OCc2ccccc2)c1C#N,i,-5.8%
O=C(COC(=O)/C=C/c1ccc(F)cc1)NCc1ccc2c(c1)OCO2,-23.5%,10.5%
C[C@@H]1CN([C@H](C)CO)C(=O)c2c(c3ccccc3n2C)-c2ccccc2CO[C@H]1CN(C)Cc1cccc(C(=O)O)c1,-25.6%,-6.4%
CCCCN(C=O)c1c(CC)nc2c(OCC3CCCCC3)cccn12,-5.0%,-9.1%
CNS(=O)(=O)c1cccc(C(=O)OCC(=O)c2c(N)n(Cc3ccccc3)c(=O)n(C)c2=O)c1,i,-13.2%
Cc1cc(F)ccc1NC(=O)CCS(=O)(=O)c1cccc2nsnc12,9.9%,4.8%
O=S(=O)(NCC(Nc1ccc(Cl)cc1)c1ccccc1)c1ccc(Cl)cc1 (centres undefined),-28.6%,?
CC(C)C(NS(C)(=O)=O)c1nnc2n1CCN(Cc1ccc(Cl)cc1)CC2 (centres undefined),-21.9%,-10.8%
CNc1nc(C)c(C(C)=O)cc1C#N,i,0.0%
O=C(O)CNC(=O)c1ccc(NS(=O)(=O)c2ccc3ccccc3c2)cc1,-14.1%,-10.0%
C=C1C(=O)OC2C1CC/C(C)=C/CCC1(C)OC21 (centres undefined),?,?
CC(=O)NS(=O)(=O)c1ccc(NC(=S)NC(=O)C2CCC2)cc1,i,-0.3%
CN(CC(=O)Nc1cccc(F)c1)CC(=O)Nc1cccc(S(=O)(=O)N2CCCCC2)c1,-15.9%,?
CCOc1cc(-c2nnc(NC(=O)c3ccco3)o2)cc(OCC)c1OCC,-13.6%,-5.6%
CC1CN(C(=O)N2CCC(C(=O)NC3CCCCCC3)CC2)c2ccccc2O1 (centres undefined),-11.1%,-17.8%
CC(C)CN(C(=O)C1CCCC1)C1CCS(=O)(=O)C1 (centres undefined),-10.3%,-14.6%
CCc1ccc(NC(=S)Nc2cc(OC)c(NC(=O)C(C)C)cc2OC)cc1,-2.4%,0.6%
COc1cc(NC(=O)NCCc2c(C)nn(C)c2C)cc(OC)c1OC,i,-8.6%
CCOC(=O)Cn1nc(N2CCN(c3ccc(F)cc3)CC2)ccc1=O,-0.9%,4.3%
CCOC(=O)C1(Cc2ccccc2C)CCCN(C(=O)CCn2nccc2C)C1 (centres undefined),i,-3.5%
OCc1ccccc1OCCCN1CCC(Cc2ccccc2)CC1,i,-16.0%
Cc1ccc(N/N=C/c2cccnc2)cc1,-9.1%,-19.8%
N[C@@H]1CC[C@@]2(O)[C@H]3Cc4ccc(O)c5c4[C@@]2(CCN3CC2CC2)C1O5 (some centres undefined),-0.1%,-13.9%
CCOc1ccc(C(=O)NCCc2sc3nc(-c4ccc(Cl)cc4)nn3c2C)cc1OCC,?,?
COc1ccc(C(N)=S)cc1,-13.1%,-6.6%
COc1ccc(CCNC(=O)CSc2nnc(C(C)N(C)C)n2Cc2ccccc2)cc1OC (centres undefined),-3.0%,-13.3%
S=c1[nH]nc(-c2ccco2)n1/N=C/c1ccccc1,-5.4%[7.34 µM],0.2%[7.34 µM]
COC(=O)c1c(C)c[nH]c1C,3.1%,5.2%
CCCCN1C(=N)N([C@@H](C)CN2CCC[C@H]2CN2C(N)=NC[C@H]2C(C)C)C[C@H]1[C@H](C)CC,i,-8.5%
CCOC(=O)[C@]12CCC=C1N(Cc1ccco1)C(=O)[C@H](CC(=O)NCc1cccc(C(F)(F)F)c1)C2,-8.3%,-3.5%
CCOc1ccc(N2CC(C(=O)NCc3ccc4c(c3)OCO4)CC2=O)cc1 (centres undefined),1.6%,-1.9%
CC(NC(=O)Nc1ccc2c(c1)OCO2)c1ccncc1 (centres undefined),i,-12.1%
Cc1nnc(SCC(=O)Nc2cccc(S(N)(=O)=O)c2)n1-c1ccccc1,10.9%,0.2%
O=C(NC(=S)/C(=C1\CCCCCN1)[N+](=O)[O-])c1ccccc1,-16.2%,-6.2%
CN(C)S(=O)(=O)c1ccc(NC(=O)N2CCN(c3ccccc3)CC2)cc1,-12.5%,-9.7%

# (cont.)
SMILES,VACV mCherry inh,VACV Venus inh
O=C(c1ccc2c(c1)OCO2)N1CCCc2ccccc21,-18.5%,-12.6%
COc1ccc(C(CC(=O)O)NC(=O)COc2ccc(C)cc2)cc1OC (centres undefined),-7.1%,-11.0%
O=C(COc1ccc([N+](=O)[O-])cc1)Nc1ccccc1C(=O)NC1CC1,0.1%,-6.4%
Cc1cc(=S)n(-c2ccccc2)n1C,.,-7.4%
O=C(CNC(=O)c1cnccn1)Nc1ccc(F)c(F)c1F,-10.4%,-4.9%
Cc1ccc(-c2csc3ncn(/N=C/N(C)C)c(=O)c23)o1,.,-9.2%
O=[N+]([O-])c1cc2c(cc1/C=N\NS(=O)(=O)c1ccccc1)OCO2,-16.1%,-9.2%
Clc1ccc(Oc2cnns2)c(Cl)c1,.,-14.8%

# Entries of single compounds from above. Order of screens: VACV mCherry inh, VACV Venus inh
# Shown for `COC(=O)c1c(C)c[nH]c1C` = 3.1%, 5.2%
# Shown for `CCc1oc(C(=O)O)cc1COC` = -2.6%, -8.8%
# Shown for `CC(C)C(NS(C)(=O)=O)c1nnc2n1CCN(Cc1ccc(Cl)cc1)CC2` (centres undefined) = -21.9%, -10.8%
# Shown for `CCOC(=O)Cn1nc(N2CCN(c3ccc(F)cc3)CC2)ccc1=O` = -0.9%, 4.3%

# Other records follow.
SMILES,VACV mCherry inh,VACV Venus inh
Cc1nc2sc(C(c3ccccc3)N3CC(C)OC(C)C3)c(O)n2n1 (centres undefined),i,-10.2%
COc1ccc(OC)c(NC(=O)CSc2nnc(-c3ccco3)n2-c2ccccc2)c1,-29.0%,-7.7%
CN1CCN(c2ccc(NC(=O)COc3ccccc3)cc2Cl)CC1,-9.5%,-21.1%
O=C(c1cnn2c(C(F)(F)F)cc(-c3ccco3)nc12)N1CCc2ccccc2C1,-0.8%,-15.3%
CCC(=O)N1CCc2cc(S(=O)(=O)CCC(=O)N3CCN(c4ccc(C(C)=O)cc4)CC3)ccc21,-11.6%,-2.4%
CCOCc1nnc(NC(=O)CCS(=O)(=O)Cc2ccccc2)s1,5.9%,-2.2%
CN(C)CCN(C(=O)c1ccco1)c1nc2c(F)cc(F)cc2s1,-10.7%,1.4%
Cc1cc(C)n2nc(C(=O)N/N=C/c3cccc(Cl)c3)nc2n1,i,0.0%
COc1ccc(Cn2cc(C(=O)c3ccccc3)c(=O)c3cc(OC)ccc32)cc1,-3.6%,-2.0%
CCc1nc2ccccc2c(=O)n1-c1cccc(OC)c1,-21.4%,-18.2%
Cc1cccc(CNC(=O)c2cccc(NC(=O)N3CCSc4ncccc43)c2)c1,-6.6%,-9.8%
Nc1c(Br)cc(Br)c2c1[nH]c(=O)c1ccccc12,i,?
O=c1oc2ccccc2c2c1nc(C(F)(F)F)n2-c1ccccc1,-12.7%,-6.6%
COc1ccc(-c2ccc3c(c2)O[C@@H](CN(C)C(=O)c2ccccc2F)[C@@H](C)CN([C@@H](C)CO)S3(=O)=O)cc1,-11.1%,-20.0%
O=C1C(O)=C(O)C(=O)C(O)=C1O,i,-8.6%
CCOC(=O)CSc1nnc(CNC(=O)c2cccc(C)c2)n1-c1ccccc1OC,-14.7%,-2.0%
CCOC(=O)C1CCCN(C(=O)Cn2sc3nc(C)cc(C)c3c2=O)C1 (centres undefined),i,-20.1%
CCn1c(CNC(=O)COc2ccc(C(C)C)cc2)nnc1SCC(=O)Nc1ccccc1C(C)C,-14.5%,-24.0%
Cc1cccc(NC(=O)c2c(NC(=O)c3ccccc3)sc3c2CCCC3)c1,-13.4%,-18.6%
CCc1nnc(N/N=C/c2cccs2)n1N,22.4µM*,?
CCOC(=O)c1c(C)nc2c(c1-c1ccccc1)C(=O)CCC2,.,-15.7%
CSc1ccccc1NC(=O)CSc1nnc(CNC(=O)c2ccccc2F)n1C,-4.8%,-12.6%
Cc1cccc(N(CC(=O)NC(C)c2ccccc2)S(=O)(=O)c2ccccc2)c1C (centres undefined),-27.6%,-23.8%
Cc1ccc2nc(Cl)c3cc(C(=O)NC4CCCCC4)sc3c2c1,4.8%,0.3%
CC1CCCCN1S(=O)(=O)c1ccc(-n2cnnn2)cc1 (centres undefined),-3.7%,-1.7%
CCC(=O)N1CCc2cc(Br)cc(S(=O)(=O)N3CCN(c4ccccc4)CC3)c21,0.6%,-1.2%
Cc1c(C(=O)Nc2ccc(S(=O)(=O)N(C)C3CCN(C)CC3)cc2)oc2ccccc12,-10.4%,?
COc1ccc(NC(=O)C2CCN(S(=O)(=O)c3cn(C)nc3C)CC2)cc1,i,-3.7%
CN(NC(=O)c1ccco1)c1nc2ccccc2nc1C(F)(F)F,-0.8%,2.6%
FC(F)(F)c1ccc(-c2nc3ccccc3s2)cc1,i,2.7%
CNC(=O)c1ccc(NC(=O)CCNC(=O)Nc2ccccc2)cc1,i,-12.7%
Cc1ccc(C)n1-c1ccncc1,.,13.7%
COc1ccc2c(COC(=O)c3n[nH]c4ccccc34)cc(=O)oc2c1,.,-10.7%
C=CCC[C@@H](Cc1ccc(F)cc1)C(=O)OC[C@@H](Cc1ccccc1)NC(=O)[C@@H](CC=C)CC(=O)N[C@@H](CO)Cc1ccccc1,i,-17.9%
Cc1ccc(NC(=O)C(=O)NCCc2c[nH]c3ccccc23)c(C)c1,-9.1%,1.3%
O=C(Nc1ccccc1C(F)(F)F)N1CCCC(O)C1 (centres undefined),.,-11.4%
Cc1ccccc1Nc1nnc(SCC(=O)c2c(N)n(C)c(=O)n(C)c2=O)s1,i,-12.7%
COC(=O)C(O)(c1ccc(NC(=O)Oc2ccccc2)cc1)C(F)(F)F (centres undefined),-13.3%,-9.8%
Nn1c(SCC(=O)N2CCCC2=O)nnc1-c1cccs1,-6.5%,-1.9%
O=C(CCNC(=O)c1ccc([N+](=O)[O-])cc1)NCCc1ccccc1,-29.8%,-7.7%
O=C1CC(N2CCN(Cc3ccc(Cl)cc3)CC2)C(=O)N1CCc1ccccc1 (centres undefined),i,-4.8%
